From PubChem BioAssay
Rango dissoc inh – prevents RanGTP from dissociating the Rango-importin beta complex. O95149+P62826. Potency, µM (series often up to 46.1 µM), for inactives: at the top dose activity change, negative = inhibition. 340,000 compounds, 0.071% hits. Biochemical FRET Rango-importin beta, RanGTP-induced dissociation; active means falling FRET ratio curve, often poorly fitted, with flat reads before Ran was added; inconclusive means other falling curves, or compound fluorescence or quenching; inactive means flat or rising ratio curve;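 note: potency is the fitted concentration of half-maximal effect; % of control where 0% means no effect; nearly all actives have a fitted effect of over 45% in size; -100% = wells without RanGTP and RCC1; the record marks most hits as doubtful in a second field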
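Two FRET readings bracket the reaction: one 5 min after compound meets Rango–importin beta, another 45 min after RanGTP-RCC1 (0.6 uM Ran, 0.2 uM RCC1, 2 mM GTP) is added. Only the second defines inhibition.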
GLA inh pH 4.5 – inhibitors of human alpha-galactosidase A at pH 4.5. P06280. purified enzyme, 4-MU-alpha-Gal fluorescence, pH 4.5. activity change, negative = inhibition, % at 105 µM. 230,000 tested, under 10 active. AID 1467; inconclusive = small, poorly fitted or top-dose-only inhibition, or a rising curve; inactive = flat fitted curve, though single readings scatter; no compound was filed as active;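 note: 0% = full activity with enzyme and -100% = basal without enzyme; dose as in the result columns while the protocol names 77 µM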
Rango-impB inh – Rango-importin beta binding inhibition. Rango CFP/YFP FRET sensor + importin beta, 45 min. Potency, µM (series often up to 92.2 µM), for the others: top-dose inhibition of complex formation. 340,000 compounds, 0.031% hits. AID 540263; active = rising FRET ratio curve, often small or poorly fitted; inconclusive = mostly compound fluorescence or quenching in the first reads; inactive = flat curves in all reads;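 note: potency is the fitted concentration of half-maximal effect; 0% = DMSO wells and 100% = buffer wells lacking importin beta; nearly all actives have a fitted effect of over 15% in size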
Target sequence (Q14974 whole entry, looked up): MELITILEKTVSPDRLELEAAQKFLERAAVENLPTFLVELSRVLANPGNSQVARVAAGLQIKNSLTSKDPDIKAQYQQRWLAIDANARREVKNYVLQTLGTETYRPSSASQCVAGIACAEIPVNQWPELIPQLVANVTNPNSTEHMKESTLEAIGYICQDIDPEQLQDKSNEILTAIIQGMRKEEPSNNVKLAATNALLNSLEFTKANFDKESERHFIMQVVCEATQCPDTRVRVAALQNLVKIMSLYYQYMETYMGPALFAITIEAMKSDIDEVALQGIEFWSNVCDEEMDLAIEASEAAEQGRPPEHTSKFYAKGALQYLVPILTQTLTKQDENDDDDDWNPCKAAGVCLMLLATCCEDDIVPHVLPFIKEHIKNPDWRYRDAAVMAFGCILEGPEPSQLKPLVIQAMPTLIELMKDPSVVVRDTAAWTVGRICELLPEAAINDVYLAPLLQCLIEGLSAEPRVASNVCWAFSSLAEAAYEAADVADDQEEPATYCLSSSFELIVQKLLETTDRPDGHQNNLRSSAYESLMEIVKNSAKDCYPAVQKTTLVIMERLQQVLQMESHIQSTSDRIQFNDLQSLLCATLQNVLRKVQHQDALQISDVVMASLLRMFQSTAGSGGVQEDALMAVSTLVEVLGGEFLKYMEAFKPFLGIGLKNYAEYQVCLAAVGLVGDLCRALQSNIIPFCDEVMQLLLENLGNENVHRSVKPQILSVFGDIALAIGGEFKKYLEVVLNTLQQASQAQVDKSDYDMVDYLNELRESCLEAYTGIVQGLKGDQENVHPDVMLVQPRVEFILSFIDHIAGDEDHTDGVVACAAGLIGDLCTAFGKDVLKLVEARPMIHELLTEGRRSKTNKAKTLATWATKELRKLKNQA
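FRET biosensor (snurportin 1 IBB flanked by EYFP and cerulean), 50 nM, with compound 5 min, then 0.125 microM importin beta in PBS, 1 mM DTT, 0.02% Tween-20, 0.1% BSA. CFP/YFP ratio read after 45 min at room temperature; pre-read flags interference.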
miR-21 reporter – raises the signal of a miR-21 reporter | Potency, µM (top dose mostly 38.3 µM), inactives show at the top dose reporter change, positive = more light | 340,000 tested, under 10 active | HeLa miR-21 FLuc reporter, luciferase, 48 h | AID 2288; active = well fitted rising curve with a large enough effect; inconclusive = small, poorly fitted or top-dose-only effect; inactive = no such curve, though single readings can be large or run the other way;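 note: % of control where 0% means no effect; miR-21 action dims this reporter so a rising signal means less miR-21 action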
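HeLa cells endogenously expressing miR-21, stably carrying CMV-driven firefly luciferase with a downstream miR-21 binding site, 2000 cells/well. Titrations up to approximately 40 uM, 48 hours; luciferase luminescence read.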
Numbers without * were called inactive; ? = inconclusive; · = not tested or not shown; & = joins results of further samples.

Rango dissoc inh	GLA inh pH 4.5	Rango-impB inh	miR-21 reporter	SMILES
10%	·	-0.4%	0%	COc1ccc(NC2CCCN(C(=O)COc3ccc(C)cc3)C2)cc1 (centres undefined)
-8%	-9	0.9%	-18%	Cc1nn(C)cc1CN(C)C(=O)CCc1nnc(CCC2CCCCC2)o1
1%	9	-1.0%	-5%	COc1cccc(C(=O)Nc2ncc3c(n2)CC(C)(C)CC3=O)c1
15%	4	-4.8%	-1%	NC(=O)CCn1c2ccccc2c2ccccc21
11%	·	2.6%	1%	Cn1c(CC(=O)Nc2ccccc2Cl)nnc1SCC(=O)NC1CCCCC1
4%	·	1.1%	-2%	COc1ccc(S(=O)(=O)N2CCC(C(=O)NCc3ccncc3)CC2)cc1
?	-6	?	1%	CCc1c(C)sc(NC(=O)CC#N)c1C#N
-13%	·	-11%	-8%	NC(=O)c1ccc(Nc2ccc3nonc3c2[N+](=O)[O-])cc1
23%	·	0.3%	·	Cc1ccc2nc(COC(=O)CNC(=O)c3ccccc3)cn2c1
3%	4	-0.2%	1%	COc1ccc(C(=O)CSc2nnc(CNC(=O)c3ccco3)n2C)cc1
-15%	2	4.4%	-33%	CC(C)n1c(SCC(=O)N2CCCC2)nc2c1c(=O)n(C)c(=O)n2C
-7%	·	-0.1%	1%	C/C(=N\NC(=O)c1nnn(-c2nonc2N)c1CSc1ccc(Cl)cc1)c1ccco1
16%	-8	1.3%	11%	Cn1cc(C(=O)c2ccc(Cl)cc2Cl)cc1C(=O)N/N=C(\N)COc1ccccc1
-9%	-2&5	-0.1%	-4%	Cc1ccc(NC(=O)OCCN2CCN(Cc3ccccc3)CCC2=O)cc1C
-24%	?	?	1%	FC(F)(F)c1cccc(-c2nc3nc(Cl)c(Cl)nc3[nH]2)c1
-6%	·	?	3%	Cc1[nH]c2ccccc2c1-c1csc(N)n1
-5%	·	2.3%	0%	COc1ccc(CCNC(=O)CS(=O)(=O)Cc2nc(-c3ccccc3Cl)oc2C)cc1OC
-12%	·	2.4%	9%	O=C(COc1ccc(S(=O)(=O)Nc2ccc(Cl)cc2)cc1)N1CCOCC1
-5%	-10	0.7%	10%	Cc1oc(-c2ccc(Cl)cc2)nc1CN1CCC(C(=O)N2CCN(Cc3ccccc3)CC2)CC1
-7%	·	2.9%	3%	COCCN1C(=O)N(c2cccc(OC)c2)C(=O)C1CC(=O)Nc1ccc(Cl)cc1 (centres undefined)
1%	·	4.8%	·	COc1ccc(NC(=O)CN(C)C(=O)c2cn(-c3ccccc3)nc2-c2ccc(Cl)cc2)cc1
3%	·	2.8%	·	Cc1ccc(NC(=O)COC(=O)CCNS(=O)(=O)c2c(Cl)cccc2Cl)cc1
-3%	-3	-0.7%	-2%	CC(C)=CCN1CCN(Cc2cnc(-c3ccccc3)s2)CC1CCO (centres undefined)
13%	6	-2.3%	-12%	CCC(=O)N/C(=N\OCc1ccc(F)cc1)c1nonc1NC(=O)CC
-1%	·	5.2%	·	Cc1cc(C)c(S(=O)(=O)N2CCN(C(=O)C3COc4ccccc4O3)CC2)c(C)c1 (centres undefined)
?	13	?	-10%	CN1CCc2c(sc3c2C(=O)NC(c2ccc(-c4cccc(Cl)c4)o2)N3)C1 (centres undefined)
3%	·	-0.2%	·	CC(C)c1ccc(S(=O)(=O)N2CCN(C(C)C(=O)NC3CCCC3)CC2)cc1 (centres undefined)
-24%	·	-0.3%	-36%	Cc1ccc(Cl)c2sc(NC(=O)C3=COCCO3)nc12
-1%	·	-1.5%	3%	O=C(NCCCNC(=O)c1ccccc1Br)c1ccccc1Br
18%	2	3.5%	4%	COc1ccccc1-c1nnc(NC(=O)c2cccc(N3C(=O)CCC3=O)c2)o1
-18%	·	-0.6%	·	CCc1ccc(C(=O)CCC(=O)Nc2ccc(OC)c(S(=O)(=O)N3CCCCC3)c2)cc1
2%	-1	-1.0%	-10%	COc1ccc(NC(=O)c2ccc(NCCCN3CCOCC3)c([N+](=O)[O-])c2)cc1
2%	3	0.1%	3%	CCCNC(=S)NCCN1CCCCC1
-8%	·	-0.5%	3%	Cc1cc(C)c2nc(NC(=O)c3ccc([N+](=O)[O-])o3)sc2c1
2%	·	5.5%	·	COc1ccc([C@H]2CC(=O)C=C(c3cc(F)ccc3F)C2)cc1OC
2%	·	2.7%	-1%	CCCn1c(N)c(N(CCOC)C(=O)c2cccc(C(F)(F)F)c2)c(=O)[nH]c1=O
4%	9	-0.4%	0%	Cn1c(=O)oc2cc(S(=O)(=O)NCCC(=O)N3CC=C(c4ccccc4)CC3)ccc21
-13%	·	-1.4%	-17%&-21%	COc1cccc(NC(=O)c2ccc3c(c2)CCN3S(C)(=O)=O)c1
-18%	·	-4.7%	·	Cc1ccc(NC(=O)CSCC(=O)N(C)CC(=O)Nc2ccccc2C(F)(F)F)cc1
28%	·	-0.1%	-2%	CN(C(=O)CN1C(=O)/C(=C/c2ccccc2F)SC1=S)C1CCS(=O)(=O)C1 (centres undefined)
1%	6	0.8%	-4%	CC(=O)C1=C(C)OC(N)=C(C#N)C1c1cccc([N+](=O)[O-])c1 (centres undefined)
31%	9	-0.8%	-5%	CCS(=O)(=O)N1CCCC(C(=O)NCc2ccc3c(c2)OCO3)C1 (centres undefined)
17%	·	3.2%	-2%	COc1cc2cc(C(=O)N/N=C/c3cccc(OC)c3OC)[nH]c2cc1OC
2%	2	0.2%	-1%	C[C@H](NS(=O)(=O)c1ccc(Cl)cc1)C(=O)OCC(=O)c1ccc[nH]1
-6%	4	4.8%	2%	COc1cc(C(=O)O)nc2ccccc12
-13%	1	4.0%	3%	Cc1ccc(NC(=O)c2ccc(C#CC3(O)CCCCC3)cc2)cc1C
9%	0	3.4%	-8%	O=C(O)C1Cn2c(nc3c(c2=O)C2(CCCC2)Cc2ccccc2-3)S1 (centres undefined)
1%	9	2.4%	-28%	CCC(=O)NC(c1ccccc1)c1nc2ccccc2[nH]1 (centres undefined)
4%	·	0.0%	-1%	Cc1ccc2oc(C(=O)NCc3ccc(S(N)(=O)=O)cc3)cc(=O)c2c1
-1%	-26	8.4%	-47%	CCOC(=O)c1cnc(SCC(C)C)nc1N

Other entries
Rango dissoc inh	GLA inh pH 4.5	Rango-impB inh	miR-21 reporter	SMILES
6%	1	1.6%	6%	NC(=O)c1ccccc1NC(=O)Nc1ccccc1Cl
-15%	-7	0.6%	-9%	Cc1[nH]c2c(C)cccc2c1CCNS(=O)(=O)c1cccc([N+](=O)[O-])c1
-13%	·	2.4%	0%	CC(C)=CCN1CCN(Cc2c[nH]c3ccccc23)CC1CCO (centres undefined)
14%	·	-0.6%	-1%	COc1ccc(CCN2CC(C(=O)NCc3cc(C)on3)CCC2=O)cc1 (centres undefined)
-15%	-3	-0.9%	-2%	Cc1oc(-c2ccc(Cl)cc2)nc1CSCC(=O)NCCCN1CCOCC1
-24%	·	-0.4%	8%	COc1ccccc1CC(=O)N1CCCc2cc(C)ccc21
1%	0	-5.4%	0%	COc1cc(NC(=O)CN(C)S(=O)(=O)c2ccc3nc(C)sc3c2)cc(OC)c1
2%	-1	0.0%	-1%	Cc1ccc(CCc2nnc(SCC(=O)Nc3cc(Cl)ccc3Cl)n2-c2ccccc2)o1
-12%	-6	5.8%	-7%	Cc1ccc(OCC(=O)Nc2ccc(-c3nc4ncccc4o3)cc2)cc1
0%	-10	-0.9%	0%	CC(=O)/C(N=Nc1c(C)n(C)n(-c2ccccc2)c1=O)=C(\C)O
1%	13	-0.2%	7%	Cc1nc2ccccc2n(CC(=O)Nc2cc(Cl)cc(Cl)c2)c1=O
2%	·	0.0%	11%	Cc1ccccc1C(=O)N1CCN(CCNC(=O)C(=O)Nc2ccc(Br)cc2)CC1
-5%	-21	4.5%	-18%	CC1(C)c2cc(Cl)ccc2-n2c1cc(O)c(-c1ccccc1)c2=O
18%	-22	-1.6%	-1%	Cc1ccnc(NC2(C(F)(F)F)N=C3SCCN3C2=O)c1 (centres undefined)
-5%	-3	-1.2%	-7%	CNC(=O)c1[nH]cnc1C(=O)Nc1ccccc1OC
-24%	-4	1.0%	-9%	COC(=O)C1CCN(CC(=O)Nc2ccc(OC)c(Cl)c2)CC1
5%	0	0.3%	-9%	O=C(Cn1cc2c(n1)CCCCC2)NCc1ccccc1
10%	2	0.0%	5%	CNC(=S)N1CCC(NC(=O)C(Cc2ccc(F)cc2)NC(C)=O)CC1 (centres undefined)
-9%	·	0.1%	-1%&5%	C=CCN=C1N[C@@H](c2ccccc2)C(C(=O)OC)=C(C)N1CCOC
-8%	·	-4.3%	-56%	COc1cc(NC(=O)n2ncc3cc(Cl)ccc32)cc(OC)c1
12%	-9	5.4%	-48%	CCOC(=O)c1sc(NC(=O)c2ccc(CC)s2)nc1C
1%	6	0.3%	-7%	COc1ccccc1OCCc1nnc(N)s1
-3%	-10	-2.0%	-12%	OCCN(Cc1ccccc1)Cc1cccc(Cl)c1Cl
3%	3	1.8%	3%	COc1ccc(N2CCN(C(C)C(=O)N3CCCC3)CC2)cc1 (centres undefined)
4%	·	-3.3%	-39%	Oc1c(Br)cc(/C=N/Nc2nncc3ccccc23)cc1Br

2 entries from above, with values under each structure:
Results follow in this order: Rango dissoc inh | GLA inh pH 4.5 | Rango-impB inh | miR-21 reporter
> CCOC(=O)c1cnc(SCC(C)C)nc1N
→ -1% | -26 | 8.4% | -47%
> NC(=O)c1ccccc1NC(=O)Nc1ccccc1Cl
→ 6% | 1 | 1.6% | 6%

Record cards (already shown):
Results for COc1cc(NC(=O)CN(C)S(=O)(=O)c2ccc3nc(C)sc3c2)cc(OC)c1 → Rango dissoc inh: 1%; GLA inh pH 4.5: 0; Rango-impB inh: -5.4%; miR-21 reporter: 0%
Results for Cc1[nH]c2c(C)cccc2c1CCNS(=O)(=O)c1cccc([N+](=O)[O-])c1 → Rango dissoc inh: -15%; GLA inh pH 4.5: -7; Rango-impB inh: 0.6%; miR-21 reporter: -9%
Results for CC(=O)/C(N=Nc1c(C)n(C)n(-c2ccccc2)c1=O)=C(\C)O → Rango dissoc inh: 0%; GLA inh pH 4.5: -10; Rango-impB inh: -0.9%; miR-21 reporter: 0%

(further entries)
Rango dissoc inh	GLA inh pH 4.5	Rango-impB inh	miR-21 reporter	SMILES
-9%	-4	2.2%	1%	CCNc1nc(Oc2ccc(=O)[nH]n2)nc(N2CCOCC2)n1
·	3	·	-2%	Nc1nc(SCC(=O)NC2CCCC2)[nH]c(=O)c1-c1ccccc1
-4%	·	-1.0%	-7%&-1%	Cn1c(=O)c(=O)n(C)c2cc(S(=O)(=O)N3CCCC3C(=O)Nc3ccc(F)cc3)ccc21 (centres undefined)
0%	-1	0.7%	-26%	COc1ccc(C(=O)N2CC(c3ccccc3)CC2=O)cc1 (centres undefined)
-16%	4	4.0%	-7%	O=C(CSc1nc(-c2ccc(F)cc2)cs1)N1CCc2ccccc21
2%	1	1.2%	-33%	COc1ccc(-c2c3c(=O)n(C)c(=O)n(C)c3cn2Cc2cccnc2)cc1
8%	-3	-0.7%	13%	Cc1ccc(N2C(N)=C(C#N)C3(C(=O)N(C)c4ccccc43)C3=C2CC(C)(C)CC3=O)cc1Cl (centres undefined)
6%	·	5.2%	·	CC1(c2ccc3c(c2)OCCO3)NC(=O)N(CC(=O)Nc2c(F)cccc2F)C1=O (centres undefined)
4%	9	-3.5%	-52%	Nc1ccccc1C(=O)N/N=C1/C2CN3CCN(C2)CC1(Cc1ccccc1)C3
20%	·	-4.5%	·	Cc1cccc(C)c1NC(=O)CN(C)C(=O)CN1C(=O)NC2(CCCC2)C1=O
13%	11	-1.5%	-8%	CCC(=O)Nc1ccc(S(=O)(=O)N2CCCCC2)cc1OC
-12%	·	0.2%	·	Cc1ccc(C(=O)C(C)OC(=O)Cc2n[nH]c(=O)c3ccccc23)cc1C (centres undefined)
-1%	-4	0.0%	0%	O=C(O)CC(c1ccccc1)c1ccccc1
-8%	·	8.1%	-3%	O=C(NNS(=O)(=O)c1ccccc1)C1CCCCC1
-11%	-4	-1.3%	1%	CCC(=O)N1CCc2cc(S(=O)(=O)NCCCN(CC)Cc3ccccc3)ccc21
-2%	·	-1.6%	2%	CC(=O)c1cccc(NC(=O)c2ccccc2-c2ccccc2C(=O)O)c1

Not all compounds are listed; count on the stated rates, not on these rows.
